Assay outcomes from PubChem.
StopGo reporter – High Throughput Screening for Foot and Mouth Disease Virus Antivirals; hit rate 1.2% among 410,000; Potency, µM (doses to about 57.9 µM), inactives show top-dose signal change, negative = less light; AID 1159524, 2015; human cells with a luciferase reporter of 2A StopGo recoding; control for the full effect not named in the record; active = well fitted falling curve with a large enough effect; inconclusive = small, poorly fitted or top-dose-only effect; inactive = no such curve, though single readings can be large or run the other way; tested in HEK293T cells; note: % is set by controls: 0 for no effect and ±100 for the full control effect; nearly all actives have a fitted effect of over 45% in size; luciferase light after 4 h
MARV entry inh – qHTS for inhibitors of binding or entry into cells for Marburg Virus. Marburg virus pseudotyped entry inhibition, cell reporter; control for the full effect not named in the record; about a third of the inactives were read at about 46 µM. Potency, µM (highest dose often 37.8 µM), for the others: at the top dose activity change, negative = inhibition, hits mostly inhibitors. hit rate 1.8% among 300,000; active = well fitted inhibition curve with a large enough effect; inconclusive = small, poorly fitted or top-dose-only effect, or effect the other way; inactive = flat fitted curve, though single readings scatter; tested in HEK293 cells; about a fifth of its hits are not listed in these tables; note: % is set by controls: 0 for no effect and ±100 for the full control effect; luciferase read-out
SARS PLpro yeast – qHTS of Yeast-based Assay for SARS-CoV PLP; S. cerevisiae expressing SARS-CoV PLpro, growth rescue; control for the full effect not named in the record; Potency, µM (highest dose often 32.9 µM), for the others: top-dose activity, positive = growth rescue; hit rate 0.19% among 330,000; note: 0% is about no effect; nearly all actives have a fitted effect of over 55% in size; growth read by luminescence after 48 h
Cruzain Triton – qHTS Assay for Promiscuous and Specific Inhibitors of Cruzain (with detergent); Cruzipain (Trypanosoma cruzi), P25779; purified cruzain, Z-FR-AMC fluorescence, 0.01% Triton; Potency, µM, for the others: max response, negative = inhibition, usual class: inhibitors; hit rate 0.43% among 200,000; AID 1478, 2009; active = well fitted curve in the direction sought with a large enough effect; inconclusive = small, poorly fitted or top-dose-only effect, or another doubt; inactive = no such curve, though single readings can be large; an effect the other way counts as inactive or inconclusive;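 note: plate controls were neutral wells for no effect and buffer without enzyme for full effect; nearly all actives have a fitted effect of over 40% in size; top concentration of the series not given in the record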
Target sequence (P25779 123-467 limits assumed): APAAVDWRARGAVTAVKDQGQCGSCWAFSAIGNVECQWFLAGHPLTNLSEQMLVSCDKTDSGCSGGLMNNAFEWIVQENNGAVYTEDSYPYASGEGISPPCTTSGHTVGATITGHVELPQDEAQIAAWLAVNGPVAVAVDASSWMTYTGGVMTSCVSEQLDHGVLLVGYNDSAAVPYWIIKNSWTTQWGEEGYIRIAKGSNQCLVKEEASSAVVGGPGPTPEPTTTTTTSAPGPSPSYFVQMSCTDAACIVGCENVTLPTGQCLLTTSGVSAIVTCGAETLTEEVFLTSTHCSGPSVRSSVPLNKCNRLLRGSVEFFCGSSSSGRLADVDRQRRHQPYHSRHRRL
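Detergent-containing run (0.01% Triton X-100) in acetate buffer pH 5.5 with 5 mM DTT: enzyme at 1.5 nM final, 15 min compound preincubation at room temperature, then 2 uM Z-FR-AMC substrate. Activity taken as 60 s fluorescence increase at 360/450 nm.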
LASV entry inh – qHTS for Inhibitors of binding or entry into cells for Lassa Virus; Lassa virus pseudotype entry inhibition, cell reporter; control for the full effect not named in the record; Potency, µM (top dose mostly 37.9 µM), inactives show at the top dose activity change, negative = inhibition, actives largely listed as inhibitors; hit rate 1.2% among 300,000; active means well fitted inhibition curve with a large enough effect; inconclusive means small, poorly fitted or top-dose-only effect, or effect the other way; inactive means flat fitted curve, though single readings scatter; tested in HEK293 cells; note: % is set by controls: 0 for no effect and ±100 for the full control effect; nearly all actives have a fitted effect of over 50% in size; luciferase read-out
Cruzain inh noDet – qHTS Assay for Promiscuous and Specific Inhibitors of Cruzain (without detergent). hit rate 2.3% among 200,000. purified cruzain, Z-FR-AMC fluorescence, no detergent. Potency, µM, for inactives: max response, negative = inhibition, most hits filed as inhibitors; active = well fitted curve in the direction sought with a large enough effect; inconclusive = small, poorly fitted or top-dose-only effect, or another doubt; inactive = no such curve, though single readings can be large; an effect the other way counts as inactive or inconclusive;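 note: plate controls were enzyme without inhibitor for no effect and buffer without enzyme for full effect; nearly all actives have a fitted effect of over 40% in size; top concentration of the series not given in the record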
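Detergent-free condition (0.00005% Triton X-100) in acetate buffer pH 5.5 with DTT. 1.5 nM enzyme and compound were pre-mixed 15 min, then 2 uM Z-FR-AMC substrate added; reaction progress from fluorescence change between first and third reads (60 s).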
RE007 growth inh – qHTS Assay for Inhibitors of the HIV-1 protein Vpr; hit rate 0.21% among 360,000; Potency, µM (series often up to 92.2 µM), for the others: at the highest dose activity change, negative = less growth; S. pombe RE007 Vpr strain, BacTiter-Glo ATP luminescence, 24 h; control for the full effect not named in the record; active = well fitted falling curve with a large enough effect; inconclusive = small, poorly fitted or top-dose-only effect; inactive = no such curve, though single readings can be large or run the other way;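 note: % is set by controls: 0 for no effect and ±100 for the full control effect; nearly all actives have a fitted effect of over 50% in size; the assay follows cell death caused by Vpr and the record does not say whether a fall means rescue or toxicity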
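Fission yeast RE007 carrying one integrated HIV-1 vpr copy, seeded at OD 0.01 in PMG+AL medium with 23 nL pinned compound. Grown 24 h at 30 degrees; viability read by BacTiter-Glo luminescence after 5 min.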
NS1 function inh – qHTS Assay for Inhibitors of Influenza NS1 Protein Function. S. cerevisiae slowed by influenza A NS1, growth recovery by OD600. Potency, µM (doses to about 46.1 µM), inactives show top-dose activity, positive = more growth. hit rate 0.4% among 270,000. AID 2326, 2010; note: actives are rising curves; nearly all actives have a fitted effect of over 50% in size
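Growth recovery, yeast-based: influenza A NS1 expressed in S. cerevisiae causes slow growth, and suppressors are detected by OD600. The parent strain without NS1 is used as positive control.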
Starred values were filed as active, the others as inactive; ? = inconclusive; nt = not tested or not shown; & = joins results of further samples; [ ] = remark or other dose. Unless noted, calls come from the whole dose curve; as a rule, active means well fitted rising curve with a large enough effect; inconclusive means small, poorly fitted or top-dose-only effect; inactive means no such curve, though single readings can be large or run the other way. Potency is the fitted concentration of half-maximal effect.

SMILES	StopGo reporter	MARV entry inh	SARS PLpro yeast	Cruzain Triton	LASV entry inh	Cruzain inh noDet	RE007 growth inh	NS1 function inh
COCCN(Cc1ccco1)C(=O)C1CCCN(c2ncnc3c2nc2n3CCCCC2)C1 (stereo not given)	19%	?	2%	nt	11µM*	nt	-1%	-5%
Cc1c(C)c2ccc(OCC(=O)N3CCN(c4ccc(F)cc4)CC3)c(C)c2oc1=O	-15%	8%[46.1 µM]	-12%	nt	29%[46.1 µM]	nt	-15%	-2%
COc1cc(-c2c(-c3cc(OC)c(OC)c(OC)c3)noc2C)ccc1F	-23%	nt	-1%	nt	nt	nt	0%	-34%
CCOc1ccc(S(=O)(=O)c2cn(Cc3ccc(OC)cc3)c3ccc(F)cc3c2=O)cc1	38%[activator]	9%[46.1 µM]	nt	-1.5%	-10%[46.1 µM]	1%	nt	nt
COc1ccccc1NC(=O)CC1CCCC1	6%	?	-14%	nt	10%[46.1 µM]	nt	1%	-5%
Cn1c(=O)c2c(nc(NCc3ccco3)n2CC(O)CO)n(C)c1=O (stereo not given)	-18%	nt	1%	nt	nt	nt	0%	0%
CCOc1ccc(Cn2nnc(C(=O)Nc3cc(OC)cc(OC)c3)c2N)cc1	19%	nt	-4%	-3.1%	nt	-3%	8%	4%
CCOn1c(SC(C)C)nc2ccccc2c1=O	-18%	-1%	-1%	-1.5%	5%	-12%	-3%	-7%
Cn1nc(-c2ccc(N3CCOCC3)c(NS(=O)(=O)c3ccc(Cl)cc3)c2)c2ccccc2c1=O	-9%	?	-2%	0.7%	?	9%	0%	?
Cc1ccc(NC(=O)C(C)OC(=O)CSc2ccccc2)cc1 (stereo not given)	18%	7%	-7%	nt	-6%	nt	3%	nt
COC(C(=O)Nc1ccc(Cl)cc1C)c1ccccc1 (stereo not given)	-14%	?	5%	0.1%	-3%	-1%	12%	11%
CCN(CC)c1ccc(NC(=O)CSc2nnc(N)s2)cc1C	-19%	-1%	-5%	2.8%	nt	-1%	-3%	?
O=C1Nc2ccc(Br)cc2/C1=C/C1CC=CCC1 (stereo not given)	?	?	-33%	nt	?	nt	?	nt
COc1cccc(-c2nc(-c3ccccn3)no2)c1OC	22%	-18%	1%	1.6%	10%	-4%	0%	-4%
O=[N+]([O-])c1ccc(S(=O)(=O)NCc2nc3cccnc3n2Cc2ccccc2Cl)cc1	5%	nt	nt	-2.0%	-5%[46.1 µM]	-10%	nt	nt
Cc1ccc(S(=O)(=O)N(C)CCCC(=O)NC(C)(C)C)cc1	-25%	20%[46.1 µM]	-2%	nt	-14%	nt	14%	-3%
Cc1cc(C)c2nc(SCC(=O)Nc3cc(C)on3)c(C#N)cc2c1	-1%	-7%[46.1 µM]	19%	nt	-13%[46.1 µM]	nt	4%	0%
O=C(NCc1nnnn1-c1ccc(F)c(F)c1)c1ccc(S(=O)(=O)N2CCOCC2)cc1	-18%	12%	1%	nt	12%	nt	-5%	nt
S=C(Nc1cc(Cl)cc(Cl)c1)N1CCCC1	?	nt	?	nt	nt	nt	-5%	0%
Cn1c(=O)c2c(nc(SCCN3CCOCC3)n2Cc2ccc(F)cc2)n(C)c1=O	nt	17%	8%	-2.2%	7%	10%	-8%	-14%
Cc1ccc2c(=O)cc(C(=O)NCc3ccccc3)oc2c1C	0%	nt	0%	nt	nt	nt	-14%	-5%
COc1cc(C(=O)NNC(=S)Nc2ccc(S(N)(=O)=O)cc2)cc(OC)c1OC	0%	?	-2%	nt	?	nt	82%	5%
O=C(CCc1nc(-c2ccccc2F)no1)NC1CCCCC1	nt	-4%	-2%	-1.2%	11%	-7%	-7%	-4%
CC(C)n1cc(/C=C2/SC(=O)N(CC(=O)Nc3ccc4c(c3)OCO4)C2=O)c2ccccc21	-21%	1%	3%	2.4%	0%	10µM*	-5%	8%
Cc1ccncc1C(N)=O	-10%	nt	-1%	nt	nt	nt	-3%	-3%
CC(=O)Nc1nc(C)c(-c2csc(Nc3cccc([N+](=O)[O-])c3)n2)s1	-26%	14µM*	5%	-7.4%	?	-18%	-2%	2%
C/C(=N\Nc1cc(-c2ccccc2)nc(-c2ccccc2)n1)c1ccc(O)c(C)c1	5%	?	-31%	3.7%	11%	?	-4%	?
COc1ccc(CNC(=O)CN(C(=O)CCC(=O)Nc2ccccn2)c2ccccc2OC)cc1	-25%	?	-2%	3.2%	-27%	7%	-6%	-22%
CCN(CC(=O)NCc1ccc(Cl)cc1)C(=O)CSc1cc(C)ccc1C	-16%	?	5%	nt	?	nt	4%	nt
COc1ccccc1NC(=O)N(O)C1(C#N)CCCCC1	-3%	-15%	nt	nt	2%	nt	-5%	nt
CCc1ccc(N(CC(=O)NCCc2ccccc2)C(=O)CCC(=O)Nc2ccccn2)cc1	7%	?	1%	nt	?	nt	4%	-11%
CC(C)CCN1CCN(Cc2cnc(-c3ccccc3)s2)CC1CCO (stereo not given)	-9%	0%[46.1 µM]	0%	nt	-4%	nt	5%	-2%
CCCN(CCC)C(=O)c1cn(CC)c2ccc(S(=O)(=O)N3CCCCC3)cc2c1=O	-6%&-7%	15%&15%[46.1 µM]	0%	3.1%	-5%[46.1 µM]	8%	-5%	-1%
CN1CCN(c2cc(N3CCNCC3)ccc2[N+](=O)[O-])CC1	-22%	5µM*	12%	-9.1%	?	-5%	18%	7%
Cc1ccc(C(=O)N[C@H](C(=O)Nc2ccc(F)cc2)C(C)C)cc1	1%	nt	-1%	nt	nt	nt	2%	-2%
COCCNC(=O)c1c(-c2ccccc2)c(-c2ccccc2)nn(C)c1=O	0%	1%[46.1 µM]	nt	-0.7%	20%[46.1 µM]	9%	nt	nt
CCOC(=O)COc1ccc(S(=O)(=O)Nc2cccc(SC)c2)cc1	?	6%	-6%	-3.9%	6%	-14%	-4%	-46%
COc1ccc(-c2nnc(NC(=O)c3cc(Cl)ccc3Cl)o2)cc1	-15%	nt	0%	-4.0%	nt	-2%	-2%	-50%
O=C(NC1CCCC1)C(c1ccncc1)N(C(=O)c1ccco1)c1ccc(Cl)cc1 (stereo not given)	-20%	-26%[46.1 µM]	1%	nt	14%	nt	2%	-14%
O=C(Nc1ccc(Cl)cc1)c1cc(S(=O)(=O)N2CCOCC2)cs1	?	?	7%	-8.0%	?	-4%	11%	-4%
COc1cccc2cc(-c3cc(=O)oc4cc(C)c(O)cc34)oc12	-5%	nt	6%	nt	nt	nt	1%	?
CCOC(=O)c1c(C(F)(F)F)cc(-c2ccc(F)cc2)nc1C	8%	?	6%	-3.9%	0%	-5%	-3%	7%
O=C(/C=C/c1cn(-c2ccccc2)nc1-c1ccccc1)Nc1ccc(C(=O)O)cc1	21%	-5%	-1%	nt	?	nt	17%	nt
CN(C)c1cccc2c(S(=O)(=O)N3CCCC3)cccc12	-7%	nt	-4%	nt	nt	nt	52%	-31%
Cc1ccc2cc3cc(C(=O)NCCN4CCOCC4)oc3nc2c1	4%	-7%	-19%	?	0%	-8%	-19%	1%
CCCN1C/C(=C/c2cccc([N+](=O)[O-])c2)C(=O)/C(=C/c2cccc([N+](=O)[O-])c2)C1	2.5µM*	?	-2%	1.3%	2µM*	?	-8%	11%
O=C(COc1ccccc1)N1CCCC1	-5%	38%[46.1 µM]	-1%	nt	5%	nt	-7%	nt
CN1C(=O)/C(=C/c2ccccc2Cl)Sc2ccc(C(=O)N3CCCC3)cc21	-28%	nt	-4%	nt	nt	nt	3%	-23%
CCCCNC(=O)NC1C(NC(=O)NCCCC)N(C)C(=O)N1C (stereo not given)	-4%	1%	1%	2.7%	?	3%	16%	10%
CC1CCCC(C)N1C(=O)CSc1nnc(COc2ccccc2)n1-c1ccccc1 (stereo not given)	nt	5%	-5%	1.6%	?	-1%	3%	-2%
COc1ccccc1N(/N=C1\Sc2ccccc2C1=O)C(C)=O	?	nt	1%	nt	nt	nt	8%	5%
CCOc1ccc(Nc2nc(N)c([N+](=O)[O-])c(N3CCN(CC)CC3)n2)cc1	-13%	nt	1%	nt	nt	nt	4%	6%
O=C1c2cccc3cc([N+](=O)[O-])cc(c23)C(=O)N1c1ccccc1O	-14%	-2%[46.1 µM]	1%	nt	7%	nt	-2%	0%
O=C1CC(c2nc3ccccc3[nH]2)CN1c1ccccc1F (stereo not given)	-18%	nt	-2%	-2.5%	nt	1%	3%	3%
Cc1nc(-c2ccc(Cl)cc2)sc1C1(C)CC(c2cccnc2)=NO1 (stereo not given)	5%	nt	-11%	nt	nt	nt	21%	-21%
Cc1ccc(S(=O)(=O)c2cc(OC(=O)c3ccco3)ccc2OC(=O)c2ccco2)cc1	29%	1%	3%	-5.2%	-17%	-20%	18%	5%
C/C(=N\NC(=O)c1ccc(F)cc1)c1cccc(NC(=O)c2ccco2)c1	6%	-1%	-4%	-2.4%	-11%	-10%	-11%	-60%
CC1Cc2ccccc2N1C(=S)NC(=O)C1(C)CC1(Cl)Cl (stereo not given)	-12%	?	20%	nt	7%	nt	2%	nt
COc1cccc(/C=N/NC(=O)c2cccc3ccccc23)c1OC	0%	2%[46.1 µM]	nt	nt	?	nt	-20%	nt
COc1ccccc1NS(=O)(=O)c1ccc(O)c(C(=O)OCC(=O)Nc2ccccc2F)c1	6%	?	1%	nt	-31%[46.1 µM]	nt	-3%	nt
More results follow:
SMILES	StopGo reporter	MARV entry inh	SARS PLpro yeast	Cruzain Triton	LASV entry inh	Cruzain inh noDet	RE007 growth inh	NS1 function inh
O=C(COC(=O)CSc1ccc([N+](=O)[O-])cc1)NCc1cccs1	3%	-1%	nt	nt	3%[46.1 µM]	nt	-4%	nt
CCNC(=O)c1ccccc1-c1nc(-c2ccccc2)no1	15%	-7%[46.1 µM]	-1%	nt	2%	nt	4%	2%
COCC1CCN(C(=O)c2cc(COc3ccc(C)c(C)c3)on2)C1 (stereo not given)	15%	13%	-7%	nt	-4%	nt	-16%	-31%
COc1ccc(/C=N/NC(=O)CNS(=O)(=O)c2ccc(C)cc2)cc1	2%	-2%	-1%	nt	?	nt	4%	-10%
